# VACV Venus inh: qHTS for Stage-Specific Inhibitors of Vaccinia Orthopoxvirus: Venus Reporter Primary qHTS. Vaccinia virus Venus reporter expression, fluorescence. Potency, µM (series often up to 36.5 µM), for the others: at the top dose activity change, negative = inhibition, actives largely listed as inhibitors. 330,000 compounds, 0.46% hits; active means well fitted inhibition curve with a large enough effect; inconclusive means small, poorly fitted or top-dose-only effect; inactive means no such curve, though single readings can be large or run the other way; tested in A549 cells; note: nearly all actives have a fitted effect of over 30% in size; inactives centre near -10
# Vaccinia mCherry: qHTS for Stage-Specific Inhibitors of Vaccinia Orthopoxvirus: mCherry Reporter Primary qHTS; Vaccinia virus mCherry reporter infection, fluorescence; about a quarter of the inactives have no number; Potency, µM (highest dose often 36.5 µM), for the others: top-dose activity change, negative = inhibition, hits mostly inhibitors; 310,000 compounds, 0.63% hits; AID 720579, 2013; active = well fitted inhibition curve with a large enough effect; inconclusive = small, poorly fitted or top-dose-only effect; inactive = no such curve, though single readings can be large or run the other way; tested in A549 cells; note: nearly all actives have a fitted effect of over 35% in size; inactives centre near -10
# * hit, by the source's call; i = inactive; u = inconclusive; x = not tested or not shown; [ ] = remark or other dose. % is set by controls: 0 for no effect and ±100 for the full control effect; potency is the fitted concentration of half-maximal effect.
SMILES | VACV Venus inh | Vaccinia mCherry
O=C(O)CC(C(=O)N(c1ccccc1)c1ccccc1)N1CCOCC1 (configuration not stated) | -12% | x
Nc1ccc(O)c2c(=O)cc(-c3ccccc3Cl)oc12 | -17% | -10%
Cc1ccc2oc(-c3cccc(NC(=O)c4ccc(Br)o4)c3)nc2c1 | -10% | -4%
CC(C)(O)C#Cc1ccc(CN2CCCC(CNC(=O)c3ccco3)C2)cc1 (configuration not stated) | -5% | -9%
CCCc1nnc(NC(=O)Nc2ccccc2Cl)s1 | -19% | -25%
O=C(c1c(F)cccc1F)N1CCCC1 | 5% | i
COc1ccc(OC)c(/C=C(\C#N)c2nc3ccccc3c(=O)[nH]2)c1 | 4% | -4%
Cc1ccc(Nc2nc3ccccc3n3cnnc23)cc1C | -5% | -13%
C[n+]1cn(Cc2cc(Cl)ccc2OC(F)F)c2ccccc21 | -4% | -5%
CC(=O)Nc1cccc(NC(=O)CSc2nc(=O)n3cccc(C)c3n2)c1 | -5% | -11%
COc1ccc(C(CC(=O)O)NC(=O)COc2cc(C)ccc2C)cc1OC (configuration not stated) | -7% | -2%
O=S(=O)(Nc1nc2ccccc2nc1NCc1ccco1)c1cccs1 | -9% | -15%
Cc1c(-c2ccccc2)sc(Br)c1C(=O)N1CCOCC1 | -26% | -27%
CC(OC(=O)c1ccc2c(c1)NC(=O)CS2)C(=O)c1ccc(F)cc1 (configuration not stated) | -10% | 0%
O=C(Nc1ccccc1)N(C1=NCCC1)c1ccc(OC(F)F)cc1 | -13% | x
CCN(C(=O)CSc1nnc(Nc2ccccc2)s1)C1CCS(=O)(=O)C1 (configuration not stated) | -13% | -1%
COCCCNC1=C(C#N)C(=O)NC(c2cccc([N+](=O)[O-])c2)S1 (configuration not stated) | -13% | -14%
Cc1ccc(S(=O)(=O)N[C@H](CNCc2ccccc2)C(C)C)cc1 | -6% | -9%
S=c1[nH]nc(-c2ccco2)n1/N=C/c1ccc(Cl)cc1 | -21% | -19%
COc1cccc(/C=N/NC(=O)CN(C2=NS(=O)(=O)c3ccccc32)c2ccccc2)c1 | -12% | -2%
CCOc1ccc(C2CC(c3c(O)n(C4CCCCC4)c(=O)[nH]c3=O)=Nc3ccccc3S2)cc1 (configuration not stated) | -2% | -8%
O=C(N/C(=C/c1cccs1)C(=O)N1CCOCC1)c1ccccc1 | 2% | -2%
c1ccc(C[C@H]2COc3c4ccccc4nn32)cc1 | 2% | -1%
CCCN(C(=O)C(C)Oc1cccc(Cl)c1)c1c(N)n(Cc2ccccc2)c(=O)[nH]c1=O (configuration not stated) | -13% | i
N#Cc1ccccc1/C=N/Nc1nc(-c2ccccc2)c2cc(Br)ccc2n1 | -16% | -6%

# Retrieved one by one from the list above (3):
SMILES | VACV Venus inh | Vaccinia mCherry
Cc1ccc2oc(-c3cccc(NC(=O)c4ccc(Br)o4)c3)nc2c1 | -10% | -4%
CC(=O)Nc1cccc(NC(=O)CSc2nc(=O)n3cccc(C)c3n2)c1 | -5% | -11%
Cc1c(-c2ccccc2)sc(Br)c1C(=O)N1CCOCC1 | -26% | -27%

# Later entries
SMILES | VACV Venus inh | Vaccinia mCherry
O=C(COc1cc(F)ccc1[N+](=O)[O-])Nc1cccc(Br)c1 | -1% | -7%
COc1ccnc(CSC(N)=Nc2ccc(F)cc2)c1 | -18% | -20%
Clc1ccc(OCc2cc(-c3ccccc3)no2)c(Cl)c1 | -11% | -10%
Cc1ccc(S(=O)(=O)N2CCC(NC(=O)c3ccccc3)CC2)cc1 | -12% | -13%
COc1ccc(C(=O)NCCNC(=O)c2ccc(OC)cc2)cc1 | 16% | 3%
O=c1[nH]cnc2c1c(-c1ccccc1)cn2-c1ccc(F)cc1 | u | u
O=C1CCC(=O)N(O)CCCCCNC(=O)CCC(=O)N(O)CCCCNC(=O)CCC(=O)N(O)CCCCCN1 | -2% | 4%
CCC(C(=O)N1CCOCC1)n1nc(C)n2c(cc3cc(C)ccc32)c1=O (configuration not stated) | -15% | i
CCOc1ccc(CCNC(=O)Cn2nc(CC)n3c(cc4c(OC)cccc43)c2=O)cc1OCC | -10% | -12%
Cc1nc(C(=O)NNC(=O)c2c(-c3c(Cl)cccc3Cl)noc2C)cs1 | u | u
Cc1cc(C)cc(NC(=O)Cn2c(=O)n(CCC(C)C)c(=O)c3cccnc32)c1 | -16% | u
COc1ccccc1-n1nc(C)c(-c2ccccc2)c1N | -13% | -18%
COc1ccccc1C(c1nnnn1C(C)(C)C)N1CCN(Cc2ccncc2)CC1 (configuration not stated) | -3% | i
CCN1CCN(C(c2cccs2)C(C)NS(=O)(=O)c2ccc(F)cc2)CC1 (configuration not stated) | 7% | -3%
COc1cccc(NC(=O)CCNS(=O)(=O)c2ccc3c(c2)CC(C)N3C(=O)C2CC2)c1 (configuration not stated) | 0%[7.34 µM] | i[7.34 µM]
COc1ccc(N2CCN(C(=O)CN3CCN(c4nc(-c5ccc(F)cc5)cs4)CC3)CC2)cc1 | -2% | -5%
Cc1cc(Br)cn2c(Cc3ccccc3C(F)(F)F)c(C3CCCCC3)nc12 | -3% | i
O=C(COc1ccc2oc(-c3ccco3)cc(=O)c2c1)N1CCCCC1 | 0% | -1%
COc1ccc(CCNC(=O)c2nc(SCc3ccc(C)cc3)ncc2Cl)cc1OC | -11% | -19%
N#CCC(=N)N1CCN(c2cccc(Cl)c2)CC1 | 8% | x
CC(C)(C)NC(=O)COC(=O)c1cc(F)c(F)cc1Cl | -15% | -16%
COc1cc(/C=C2\C(=O)N(c3ccccc3)N=C2C)ccc1Oc1ccc([N+](=O)[O-])cc1[N+](=O)[O-] | -24% | u
COc1ccc(NC(=O)Nc2ncccc2C)cc1 | -6% | -16%
O=C(O)C1C2c3ccccc3C(O)C1(C(=O)O)c1ccccc12 (configuration not stated) | 0% | i
Cc1oc2ncnc(N3CCOCC3)c2c1C(=O)Nc1ccc(Br)cc1F | -4% | -15%

# Three successive entries from above:
SMILES | VACV Venus inh | Vaccinia mCherry
O=C1CCC(=O)N(O)CCCCCNC(=O)CCC(=O)N(O)CCCCNC(=O)CCC(=O)N(O)CCCCCN1 | -2% | 4%
CCC(C(=O)N1CCOCC1)n1nc(C)n2c(cc3cc(C)ccc32)c1=O (configuration not stated) | -15% | i
CCOc1ccc(CCNC(=O)Cn2nc(CC)n3c(cc4c(OC)cccc43)c2=O)cc1OCC | -10% | -12%

# The list continues:
SMILES | VACV Venus inh | Vaccinia mCherry
COc1ccccc1-c1cccc([C@@H]2C[C@H]3[C@H](CON3C)CN2Cc2ccccc2)c1 | -17% | i
Cc1ccc(CNC(=O)c2nc(S(=O)(=O)Cc3ccc(C)cc3)ncc2Cl)cc1 | u | u
COc1ccc(C(NC(=O)CN2C(=O)NC3(CCc4ccccc43)C2=O)c2ccc(OC)cc2)cc1 (configuration not stated) | -29% | u
Cc1cc(=O)[nH]c(N2CCCC2)n1 | -3% | x
COc1ccc(CN2CC[C@H]3C=CC[C@@H](C(=O)Nc4ccc(Cl)cc4Cl)[C@H]3C2=O)cc1OC | u | -24%
Cc1ccc(Oc2ccc(Cl)cc2NC(=O)c2ccc(F)cc2F)cc1 | -12% | -18%
CSc1nnc(NC(=O)c2cccc(S(=O)(=O)N3CCOCC3)c2)s1 | -5% | -18%
CCc1ccc(NC(=O)C(C)Sc2nc(-c3ccco3)c(C#N)c(=O)[nH]2)cc1 (configuration not stated) | -2% | -9%
Cc1nnc(NC(=O)CSc2nc3ccccc3o2)s1 | -4% | -14%
Cc1ccccc1NCc1cccn1-c1nnc(N2CCOCC2)s1 | -1% | -7%
C=CCNC(=S)Nc1ccc(OC(=O)Nc2ccc(Cl)c(Cl)c2)cc1 | -9% | i
Cc1ccc(CNS(=O)(=O)c2ccc(-n3cccn3)cc2)cc1 | -20% | -6%
COc1ccc(N2CCN(C(c3ccccc3)c3nnc(-c4ccccc4Cl)o3)CC2)cc1 (configuration not stated) | -8% | -11%
CC1=C(C(=O)OCC(Cl)(Cl)Cl)N2C(=O)C(NC(=O)Cc3ccccc3)C2SC1 (configuration not stated) | -11% | -4%
CCc1ccc(S(=O)(=O)c2nnn(-c3ccc(F)cc3)c2N)cc1 | -8%[7.34 µM] | -14%[7.34 µM]
COc1cc(/C=N/NC(=O)c2cccc3ccccc23)cc(OC)c1O | -25% | u
COc1cccc(-c2cnc(NCc3ccccc3Cl)n2C)c1 | -29% | -30%
Cc1cc(C)c(C)c(S(=O)(=O)N2CCN(c3ccc(O)cc3)CC2)c1C | -23% | u
COc1ccc(CN(C)C(=O)COC(=O)c2c(-c3ccccc3Cl)noc2C)cc1 | -1% | -10%
O=C(Nc1ccc(F)cc1)c1oc2ccccc2c1NC(=O)C1CC1 | -10%[7.34 µM] | -7%[7.34 µM]
O=C(Cc1cccs1)NCc1ccco1 | -8% | -14%
Cc1cc(Br)cn2c(Cc3ccsc3)c(-c3ccccc3)nc12 | -4% | 30%
C/C(=N\NC(=S)NCc1ccccc1)c1ccccc1 | -21% | -17%
CSc1ccc(-c2sc(Nc3ccccc3)n[n+]2-c2ccc(F)cc2)cc1 | -15% | -14%
COc1ccc2nc(SCC(=O)c3c(C)[nH]c4ccccc34)nc(C)c2c1 | 0% | -1%

# Ordered by formula weight (rising): some entries from above
SMILES | VACV Venus inh | Vaccinia mCherry
COc1ccc2nc(SCC(=O)c3c(C)[nH]c4ccccc34)nc(C)c2c1 | 0% | -1%
COc1ccc(N2CCN(C(c3ccccc3)c3nnc(-c4ccccc4Cl)o3)CC2)cc1 (configuration not stated) | -8% | -11%
CC1=C(C(=O)OCC(Cl)(Cl)Cl)N2C(=O)C(NC(=O)Cc3ccccc3)C2SC1 (configuration not stated) | -11% | -4%

# Later entries
SMILES | VACV Venus inh | Vaccinia mCherry
COc1ccc(CNC(=O)Cn2c(=O)cc(-c3ccccc3)c3c(C)nn(C)c32)cc1 | 1% | -2%
O=C1CCCCC1(O)Cc1ccc2c(c1)OCO2 (configuration not stated) | -1% | -29%
Cc1ccc(S(=O)(=O)C(CNC(=O)C(=O)NCCc2ccc(F)cc2)c2cccs2)cc1 (configuration not stated) | -5% | -10%
CCOc1ccc(CN2CCN(Cc3cccc4nonc34)CC2CCO)cc1 (configuration not stated) | 4% | -9%
C=Cn1ccnc1P(=S)(c1c(C)nn(-c2ccccc2)c1C)c1nccn1C=C | -17% | -21%
COc1ccc(S(=O)(=O)N(C)c2ccc(C(=O)NC3CC3)cc2)cc1 | -2% | i
O=C1c2ccccc2C(Nc2ccc3nc(-c4cccnc4)[nH]c3c2)N1Cc1ccco1 (configuration not stated) | 3% | i
CCOC(=O)N1CCc2c(sc3nc[nH]c(=O)c23)C1 | -18% | -2%
COc1cccc(C(=O)NCCSc2ccc(Br)cc2)c1 | -5% | -14%
CC(=O)Nc1cccc(NC(=O)Nc2cccc(Cl)c2C)c1 | -23% | i
COc1cccc(NC(=O)CSc2ccc(-c3sc(C)nc3C)nn2)c1 | -20% | u
Cc1cc(=O)[nH]n(CCO)c1=O | 0%[7.34 µM] | i[7.34 µM]
Cc1cc(-c2nc3ncccc3o2)ccc1NC(=O)CC(C)C | -17% | i
CC(C)(C)c1ccc2c(c1)C(=O)c1ccccc1C2=O | -19% | -8%
Cc1c(Cl)cccc1NC(=O)CC1SC(=NCC2CCCO2)NC1=O (configuration not stated) | -9% | i
Cc1cc(C)c(S(=O)(=O)NCc2ccc3c(c2)cc(C)n3C)c(C)c1 | 12% | 28%
COc1ccc(CNC(=O)C2(CC3CC(c4ccccc4)=NO3)CCN(C(=O)CCCCCBr)CC2)cc1 (configuration not stated) | -27% | i
Cc1nn(-c2ccc3nncn3n2)c(C)c1CCC(=O)Nc1ccc(OC(F)(F)F)cc1 | 5% | -4%
CC1=C(C(=O)N2CCOCC2)CC(CC(=O)NCCCCc2ccccc2)C(=O)N1Cc1ccc(C(C)(C)C)cc1 (configuration not stated) | -28% | -9%
CC(=O)c1sc(NC(=O)c2cccc(N3C(=O)CCC3=O)c2)nc1-c1ccccc1 | -11% | -12%
COc1ccc(-c2oc3c(c2C#CC(C)(C)O)C(OCCO)CC3)cc1 (configuration not stated) | 3% | -5%
Brc1ccc(C2NCCS2)cc1 (configuration not stated) | -7% | i
O=C(Cc1ccccc1[N+](=O)[O-])NNC(=O)Nc1ccc2c(c1)OCO2 | -6% | -9%
COc1ccc(NC(=S)Nc2ccccc2Cl)cn1 | -5% | -1%
CC1CCCC(C)N1C(=O)CSc1nnnn1-c1cccc2c1CCCC2 (configuration not stated) | -10% | i

# Look-ups from the entries so far:
# For Vaccinia mCherry, COc1ccc(-c2oc3c(c2C#CC(C)(C)O)C(OCCO)CC3)cc1 (configuration not stated) has the entry -5%
# For VACV Venus inh, CC1CCCC(C)N1C(=O)CSc1nnnn1-c1cccc2c1CCCC2 (configuration not stated) has the entry -10%

# Additional results:
SMILES | VACV Venus inh | Vaccinia mCherry
CCOC(=O)c1nc(NCc2ccccc2)c2ccccc2n1 | -2% | -8%
COc1cc(C(=O)NCc2nnc(SCC(=O)NCc3ccco3)o2)cc(OC)c1OC | -1% | -17%
Cc1ccc(NC(=O)c2cccc(S(=O)(=O)N(C)C3CCCCC3)c2)nc1 | -4% | -20%
O=S(=O)(Nc1ccc(Cl)cc1NS(=O)(=O)c1ccccc1)c1ccccc1 | -23% | -4%
O=C1CCC(C(=O)OCc2cc(Cl)ccc2OC(F)F)N1 (configuration not stated) | -6% | -17%
CCOC(=O)C1CCCN(Cc2cccs2)C1 (configuration not stated) | -13% | -15%
